FXIIa single = human FXIIa protease inhibitors, primary screen, biochemical, single well | Coagulation factor XII (Homo sapiens), P00748 | purified human FXIIa, AMC substrate fluorescence, 2 h | inhibition, % at 10 µM | 33,000 tested, 0.2% active | AID 701, 2007; in the data active means inhibition above about 30%;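 further: 0% = enzyme with vehicle only and 100% = no enzyme blank; many of its hits are not listed in these tables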
Target sequence (P00748 20-372 limits assumed): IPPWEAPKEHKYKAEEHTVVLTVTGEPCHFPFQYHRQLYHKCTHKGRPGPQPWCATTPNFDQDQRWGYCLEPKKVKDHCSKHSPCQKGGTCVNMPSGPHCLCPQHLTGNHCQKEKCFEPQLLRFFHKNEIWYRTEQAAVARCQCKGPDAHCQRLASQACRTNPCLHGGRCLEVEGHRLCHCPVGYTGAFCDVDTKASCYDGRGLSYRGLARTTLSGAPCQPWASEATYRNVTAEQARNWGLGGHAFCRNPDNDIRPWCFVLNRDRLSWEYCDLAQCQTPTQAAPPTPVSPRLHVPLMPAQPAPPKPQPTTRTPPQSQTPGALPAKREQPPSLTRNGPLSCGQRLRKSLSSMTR
Target sequence (P00748 373-615 limits assumed): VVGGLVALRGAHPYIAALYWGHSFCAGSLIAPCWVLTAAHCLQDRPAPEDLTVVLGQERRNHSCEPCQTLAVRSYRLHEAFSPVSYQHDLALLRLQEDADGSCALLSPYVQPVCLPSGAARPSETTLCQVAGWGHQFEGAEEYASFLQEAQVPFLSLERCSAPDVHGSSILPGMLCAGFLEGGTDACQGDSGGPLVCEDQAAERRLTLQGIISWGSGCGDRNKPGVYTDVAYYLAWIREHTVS
* hit, by the source's call. An excerpt, and most or all hits are left out here.

molecule	FXIIa single
CC(=O)OCCc1c(C)nc2nc[nH]n2c1=O	11.0
C/C(=N\NC(=S)Nc1ccc(F)cc1)C1CC1	-11.9
CCCc1nn(C(=O)c2ccccc2)c2c1C(=O)CC(C)(C)C2	10.5
CCOC(=O)c1cc(OC(=O)c2ccccc2)n(-c2ccccc2)n1	-3.6
COc1ccc(C(=O)Nc2nc3c(s2)Cc2cc(OC)ccc2-3)cc1	4.9
O=C(Cc1ccccc1)n1nc(-c2ccco2)nc1SCc1ccccc1	-1.6
O=C(c1cccs1)n1nc(-c2ccco2)nc1SCc1ccccc1	7.5
Cc1cc(C(F)(F)F)c2c(n1)sc1c(O)cc(=O)[nH]c12	7.8
CN(C)CCCC(=O)c1ccc2c(c1)OCO2	1.8
COc1ccc(C2SC[C@@H](C(=O)O)N2C(C)=O)cc1 (stereo not given in full)	12.9
Cc1cccc(NC2SC(=O)N(CC(=O)O)C2=O)c1 (stereo not given)	7.5
CC(=O)Nc1ccc(OC(=O)c2ccco2)cc1	8.0

Five compounds from above, sorted by the value under FXIIa single, ascending:
molecule	FXIIa single
C/C(=N\NC(=S)Nc1ccc(F)cc1)C1CC1	-11.9
Cc1cccc(NC2SC(=O)N(CC(=O)O)C2=O)c1 (stereo not given)	7.5
CC(=O)Nc1ccc(OC(=O)c2ccco2)cc1	8.0
CCCc1nn(C(=O)c2ccccc2)c2c1C(=O)CC(C)(C)C2	10.5
CC(=O)OCCc1c(C)nc2nc[nH]n2c1=O	11.0
